From PubChem BioAssay
B2AR ag – beta2AR agonists driving receptor internalization, primary screen, cell-based, FAP fluorogen, flow cytometry | Am2.2-beta2AR cells; reference of the scale not given here | actives 0.43% (n = 340,000) | Beta-2 adrenergic receptor (Homo sapiens), P07550 | response, % (no concentration beside the values);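 active = response above a set limit, near 3 SD of response in nonfluorescent compounds, cut at about 42% in these data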;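 also: stock transfer was 100 nL into about 11 µL; a reference agonist was the positive control; negative values mostly stem from fluorescent compounds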
HNF4A DNA FP – change in binding of human HNF4A to DNA, primary screen, biochemical, fluorescence polarization, FITC-DNA. Hepatocyte nuclear factor 4-alpha (Homo sapiens), P41235. 1 h. activity change, % at 10 µM. actives 0.3% (n = 360,000). AID 1224865, 2016; in the data active = activity change above about 30%, passing the limit was not always enough;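 also: controls were the assay level and a saturating level of protein; the project sought stronger binding though the title names inhibitors; some compounds called inactive have numbers as strong as hits; positive values seem to mean higher polarization but the record does not say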
RanGTP-Imp inh – inhibitors of RanGTP-importin-beta interaction, primary screen, biochemical, FRET, CFP-Ran, YFP-importin-beta, homogeneous; cell-free CFP-Ran/YFP-importin-beta FRET ratio; inhibition, % (test concentration not listed); actives 1.1% (n = 300,000); AID 2216, 2009;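 active = most replicates above 15%; inconclusive = exactly half above 15%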;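 also: 0% = DMSO wells and 100% = Ran loaded with GDP instead of GTP; wells of about 40 µL received 100 nL stock; the first replicate is given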
LANA-H2B inh – blockers of LANA interaction with H2A/H2B – biochemical, FP readout, HTS, primary screen; Protein LANA1 (Human herpesvirus 8 type P (isolate GK18)), Q9QR71; actives 0.6% (n = 320,000); inhibition, % (no concentration beside the values); cell-free LANA-H2A/H2B peptide, fluorescence polarization; in the data active = inhibition mostly above about 10%, no sharp cut-off; inactive = mostly below about 6.7%;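 also: stock transfer was 7.5 nL into about 10 µL; 0% = median of vehicle wells and 100% = median of positive control wells; one replicate is shown; the record names a cut of 25% in any replicate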
Target sequence (Q9QR71 whole entry, looked up): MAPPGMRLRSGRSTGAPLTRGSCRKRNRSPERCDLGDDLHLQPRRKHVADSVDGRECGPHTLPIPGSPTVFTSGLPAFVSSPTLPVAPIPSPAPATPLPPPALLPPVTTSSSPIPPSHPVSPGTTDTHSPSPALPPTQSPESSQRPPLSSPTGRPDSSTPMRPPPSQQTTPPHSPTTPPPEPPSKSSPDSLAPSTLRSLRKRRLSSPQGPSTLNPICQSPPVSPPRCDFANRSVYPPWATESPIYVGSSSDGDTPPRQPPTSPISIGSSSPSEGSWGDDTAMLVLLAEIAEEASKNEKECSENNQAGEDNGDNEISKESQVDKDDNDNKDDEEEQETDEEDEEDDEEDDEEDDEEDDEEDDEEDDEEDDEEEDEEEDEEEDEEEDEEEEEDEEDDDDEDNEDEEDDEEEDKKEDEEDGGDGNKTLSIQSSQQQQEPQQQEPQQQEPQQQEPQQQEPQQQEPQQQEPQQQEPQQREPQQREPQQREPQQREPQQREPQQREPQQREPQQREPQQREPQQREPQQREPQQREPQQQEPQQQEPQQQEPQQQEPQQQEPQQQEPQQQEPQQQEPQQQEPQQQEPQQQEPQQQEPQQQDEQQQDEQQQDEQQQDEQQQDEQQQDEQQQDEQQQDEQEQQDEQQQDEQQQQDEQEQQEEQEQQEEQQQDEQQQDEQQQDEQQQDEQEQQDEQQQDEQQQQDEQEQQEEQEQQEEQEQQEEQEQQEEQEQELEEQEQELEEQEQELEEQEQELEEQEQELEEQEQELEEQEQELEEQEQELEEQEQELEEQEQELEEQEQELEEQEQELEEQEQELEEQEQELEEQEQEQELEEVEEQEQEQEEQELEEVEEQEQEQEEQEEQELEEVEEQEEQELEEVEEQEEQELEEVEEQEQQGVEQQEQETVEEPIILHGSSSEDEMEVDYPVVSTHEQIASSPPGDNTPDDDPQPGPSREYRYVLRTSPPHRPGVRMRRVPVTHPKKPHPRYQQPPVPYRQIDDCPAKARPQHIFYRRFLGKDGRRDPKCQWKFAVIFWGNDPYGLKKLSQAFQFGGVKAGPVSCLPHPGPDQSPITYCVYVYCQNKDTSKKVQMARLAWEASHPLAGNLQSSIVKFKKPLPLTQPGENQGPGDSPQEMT
ALR H2O2 inh – inhibitors of human ALR sulfhydryl oxidase, primary screen, biochemical, H2O2 detection, HRP-luminol luminescence, single point | purified ALR, DTT oxidation | actives 3.8% (n = 290,000) | inhibition, % (test concentration not listed);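 active = mean and each replicate at 75% or more; inconclusive = only one of the two met; inactive = neither met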;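 also: stock transfer was 7.5 nL into about 7.5 µL; 0% = neutral wells and 100% = wells with inactivated enzyme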
Calb FLC – C. albicans growth inhibition with fluconazole, primary screen, CaCi-2 strain, Alamar Blue fluorescence; C. albicans CaCi-2 (fluconazole-resistant clinical isolate) + fluconazole, 48 h; growth inhibition, % (no concentration beside the values); actives 0.57% (n = 300,000); AID 1979, 2009;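 active = most replicates above 75%; inconclusive = exactly half above 75%; inactive = most below 75%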;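 also: all wells also contain fluconazole at 8 µg/ml as a sub-toxic cotreatment; 0% = median of DMSO wells and 100% = median of geldanamycin control wells; wells of about 8 µL received 7.5 nL stock; the first replicate is given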
Vif TR-FRET – inhibitors of Vif binding to APOBEC3G peptide, primary screen, biochemical, TR-FRET, GST-Vif 1-94, biotin-A3G peptide, dose response retest (AID 1117319); TR-FRET GST-Vif / biotin-A3G peptide binding; higher % means a stronger effect; test concentration not given here; strong numbers were not always called active; inhibition, %, or IC50 in µM where a hit was titrated; actives 0.57% (n = 260,000);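 active = above the screen mean plus three standard deviations and confirmed in dose response; inconclusive = results disagree or hit not tested in dose response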;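 also: Vif residues 1-94 fused to GST binding biotinylated APOBEC3G peptide 110-148; 0% = full assay without inhibitor and 100% = GST in place of GST-Vif; retest series ran down from 100 µM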
The depositor's hits bear a star; ? = inconclusive; . = not tested or not shown. Compounds were not picked by outcome; any-hit rate near 6.3%.

SMILES	B2AR ag	HNF4A DNA FP	RanGTP-Imp inh	LANA-H2B inh	ALR H2O2 inh	Calb FLC	Vif TR-FRET
COc1ccccc1N1CCN(S(=O)(=O)c2cn(C)cn2)CC1	-2	2.9	1.5	6.0	67	1	.
COc1cccc(C(=O)Oc2ccc(/C=N/NC(=O)c3ccncc3)cc2OC)c1	9	1.3	4.2	3.8	-2	22	.
CCc1ccc(NS(=O)(=O)c2ccc3[nH]cc(C(=O)NCC4CCCO4)c(=O)c3c2)cc1 (stereo not given)	-8	2.6	2.9	0.3	-1	-3	12%
O=C(Nc1nnc(-c2cccs2)o1)c1cccc(C(F)(F)F)c1	3	0.3	0.2	1.1	-4	62	-1%
Cc1ccc(S(=O)(=O)N2CCN(C(C(=O)Nc3ccc(F)cc3)c3ccccc3)CC2)cc1 (stereo not given)	3	0.8	-0.4	6.3	-14	17	70%
CCOc1ccc(S(=O)(=O)N2CCN(C(=O)Cc3n[nH]c(=O)c4ccccc34)CC2)cc1	6	-3.5	.	.	.	.	-6%
COc1ccccc1N1CCN(/N=C/c2ccc(Cl)c([N+](=O)[O-])c2)CC1	9	5.5	1.5	2.9	-4	-34	.
CCOC(=O)C1CCCN(Cc2nc(CC3CC3)no2)C1 (stereo not given)	9	1.2	-0.3	3.8	-2	-17	.
COc1ccc(OC)c(/C=N/Nc2nc(C)cc(=O)[nH]2)c1	11	1.1	-1.3	-3.5	-14	-3	4%
CCc1ccc(NC(=O)CSc2nc3ccccc3c(=O)n2CCCC(=O)NCCCN2CCOCC2)cc1	4	3.9	-5.1	-0.9	.	-1	0%
O=c1[nH]n(-c2ccccc2)c(=O)cc1Cl	-7	3.0	.	.	.	.	-5%
COc1ccccc1NC(=O)c1c([N+](=O)[O-])c(C(C)(C)C)nn1C	2	1.3	-2.0	7.5	-4	-39	-5%
CN(C)CCCNC(=O)c1ccc(/C=N/O)nc1	-2	-7.5	.	.	.	.	-3%
Cc1[nH]c(=O)c(C#N)cc1-c1ccccc1	2	1.6	5.7	-1.2	-3	2	?
CCCCCCCN1N=C(C)C(C(=O)c2ccccc2)C1=O (stereo not given)	5	-2.4	5.9	6.5	-3	-14	-3%
CCOC(=O)c1cc2c(c(CCO)n1)[C@@H](CCO)N(S(=O)(=O)C(C)(C)C)C2	-5	-2.9	.	.	.	.	-1%
Cc1ccc(C)c(C(=O)COC(=O)c2nn(C)c(=O)c3ccccc23)c1	-7	5.9	.	-4.7	3	.	12%
CC(C)C[C@H](NC(=O)c1nc[nH]c1C(=O)NCCCCCNC(=O)OC(C)(C)C)C(=O)OCc1ccccc1	5	4.3	6.3	0.9	1	9	20%
CCOc1ccc(CCNC(=O)CN(C)S(=O)(=O)c2cccc3nsnc23)cc1OCC	3	0.5	-1.2	-2.1	-21	-11	0%
CCCc1cc(=O)[nH]c(SCC(=O)c2c[nH]c3ccccc23)n1	2	7.1	1.9	1.1	-3	-2	9%
CSc1ccc(-c2nc(CSCC(=O)N3CCOCC3)c(C)o2)cc1	2	-2.1	-1.1	-3.6	98*	-1	-11%
CCOc1ccc(C(C)NC(=O)CCC(=O)O)cc1 (stereo not given)	2	-5.5	-0.7	-4.8	-20	1	10%
Cc1c(NC(=O)c2cnn3c2NC(c2ccc(Br)cc2)CC3C(F)(F)F)c(=O)n(-c2ccccc2)n1C (stereo not given)	-3	-1.9	-1.2	2.0	-2	16	5%
CC(C)(C)SCCNC(=O)c1ccc(NS(C)(=O)=O)cc1	-1	0.5	2.2	1.0	-2	-14	12%
CC/C(=N/Nc1ccccc1)c1cnnc(-c2ccccc2)n1	5	14	?	-1.4	?	-17	5%

Random excerpt: 2 entries already listed, in no set order.
SMILES	B2AR ag	HNF4A DNA FP	RanGTP-Imp inh	LANA-H2B inh	ALR H2O2 inh	Calb FLC	Vif TR-FRET
CN(C)CCCNC(=O)c1ccc(/C=N/O)nc1	-2	-7.5	.	.	.	.	-3%
CSc1ccc(-c2nc(CSCC(=O)N3CCOCC3)c(C)o2)cc1	2	-2.1	-1.1	-3.6	98*	-1	-11%

New compounds follow.
SMILES	B2AR ag	HNF4A DNA FP	RanGTP-Imp inh	LANA-H2B inh	ALR H2O2 inh	Calb FLC	Vif TR-FRET
CS(=O)(=O)Nc1ccc(C(=O)NCc2cccnc2)cc1	3	1.9	-5.8	-0.8	0	23	15%
Cc1ccccc1NC(=O)Nc1cccs1	1	4.7	-1.6	-5.7	65	3	12%
OCCC1CN(CC2CC2)CCN1Cc1ccc(F)c(F)c1 (stereo not given)	2	-3.3	-1.7	-5.9	2	4	.
CC(=O)OC1[C@H](Oc2c(O)c(C)c3c4c2[C@@H](C)CC[C@@H]4[C@@H](C)C[C@@H]3C=C(C)C)OC[C@@H](O)[C@@H]1O (stereo not given in full)	-1	-3.7	.	-4.4	4	.	.
Cc1cccc(C(=O)N2CC3(C)CC2CC(C)(C)C3)c1 (stereo not given)	3	0.6	6.1	3.2	2	18	-2%
Cc1ccccc1NC(=O)c1[nH]cnc1C(=O)NN	7	-1.1	-1.4	-0.2	0	14	-5%
Nn1c(Nc2ccccc2)nc2ccccc21	-10	1.8	-2.0	7.9	14	-5	1%
COc1ccccc1OCc1nc(C#N)c(N2CC(C)CC(C)C2)o1 (stereo not given)	-3	-3.1	4.0	0.2	-21	3	3%
Cn1cc(CNC(=O)CC2C(=O)NCCN2CC(C)(C)C)cn1 (stereo not given)	8	-2.2	1.3	-1.7	-7	-4	?
O=c1[nH]c2ccc(S(=O)(=O)Nc3ccccc3O)cc2[nH]1	-68	1.4	4.0	-0.4	93*	11	-7%
CCOC(=O)c1ccc(NC(=O)COc2ccc(-n3cnnn3)cc2)cc1	-12	-2.6	1.5	-4.1	-3	5	12%
O=C(Nc1cccc2c1CCCC2)c1ccc(Br)o1	-5	-2.8	3.8	1.3	-2	-4	-3%
Cc1ccccc1Oc1cc(NC(=O)Cn2cnc([N+](=O)[O-])c2)cc([N+](=O)[O-])c1	9	-1.4	?	-2.3	-4	21	1%
OCCNc1c2ccccc2nc2ccccc12	-6	-3.7	40*	-0.1	-15	33	-7%
COc1ccc(OC)c(/C=N\NC(=O)c2ccc(COc3ccc(C)cc3[N+](=O)[O-])o2)c1	1	-0.5	3.5	-4.8	0	-10	.
CCC1=C(c2cc(OC)c(OC)c(OC)c2)C2(CCCC2)C(=O)O1	-10	1.0	-1.4	-0.9	-2	-22	.
c1ccc(COc2ccc(OCCCn3cncn3)cc2)cc1	6	-0.9	2.2	-1.6	5	3	-4%
CCC1COCCS(=O)(=O)N1Cc1ccc(F)cc1 (stereo not given)	2	-3.3	3.4	-1.3	-5	-2	.
O=C(Nc1nccs1)C1(c2ccc(Cl)cc2)CC1	4	1.1	0.2	4.3	-3	20	3%
CC1CCCN(c2c([N+](=O)[O-])cc(C(=O)O)cc2[N+](=O)[O-])C1 (stereo not given)	4	3.0	1.6	3.3	14	11	-4%
COc1ccc(-c2ccc(NS(=O)(=O)c3cccc([N+](=O)[O-])c3)cc2)nn1	-2	-1.8	-7.3	1.9	-8	-3	.
CCOC(=O)c1c(C)n(CCNC(C)=O)c2ccc(OC)cc12	-1	6.2	2.6	2.6	-15	10	-3%
CCOC(=O)Cn1nnc(-c2ccc([N+](=O)[O-])cc2)n1	0	3.2	1.9	.	.	7	.
CC1=C(C(=O)Nc2ccccc2C)C(c2ccc(C)o2)C2=C(CCCC2=O)N1 (stereo not given)	-10	-1.7	-2.2	-0.1	-5	1	5%
Nc1ccc(SCC(=O)Nc2cccc([N+](=O)[O-])c2)cc1	0	2.2	-1.6	71*	99*	-37	-8%

As a working copy, part of the list above.
SMILES	B2AR ag	HNF4A DNA FP	RanGTP-Imp inh	LANA-H2B inh	ALR H2O2 inh	Calb FLC	Vif TR-FRET
CS(=O)(=O)Nc1ccc(C(=O)NCc2cccnc2)cc1	3	1.9	-5.8	-0.8	0	23	15%
Cc1ccccc1NC(=O)Nc1cccs1	1	4.7	-1.6	-5.7	65	3	12%

Remaining list, next part.
SMILES	B2AR ag	HNF4A DNA FP	RanGTP-Imp inh	LANA-H2B inh	ALR H2O2 inh	Calb FLC	Vif TR-FRET
COn1c(SC2CCCCC2)nc2ccccc2c1=O	-8	1.8	1.7	-1.1	32	38	0%
COC(=O)[C@H](CCSC)NC(=O)Nc1cccc(Br)c1	-6	0.0	0.0	-6.2	-5	-3	-1%
CCN1CCN(c2cc(C)c3cc(NC(=S)N4CCCC(C)C4)ccc3n2)CC1 (stereo not given)	8	-1.5	-0.7	3.8	14	9	1%
CC(OCC(O)CNCC1COc2ccccc2O1)c1ccc(Cl)cc1 (stereo not given)	-2	0.9	7.5	2.1	-6	-38	-5%
Cc1ccc(N2C(=O)C3CCCN3C2=S)cc1 (stereo not given)	25	1.5	-2.5	3.7	-4	1	0%
COc1ccc(S(=O)(=O)N2CCOCC2)cc1NC(=O)c1ccc(OC(F)F)cc1	1	-3.1	.	.	.	.	1%
O=C(OCC(=O)N1CCC(Cc2ccccc2)CC1)c1ccccc1F	1	1.2	.	2.5	0	.	-5%
COc1ccc(C(=O)O)cc1S(=O)(=O)N1CCN(Cc2ccc3c(c2)OCO3)CC1	1	-3.3	.	0.5	-2	.	5%
CCOc1cc(C(=O)NC(C)C2CC3CCC2C3)cc(OCC)c1OCC (stereo not given)	2	-1.1	?	0.8	4	12	.
Cc1cc(C)c2cc(C)c3nnc(SCC(=O)NCc4ccc5c(c4)OCO5)n3c2c1	-2	4.3	2.1	0.3	13	9	-5%
O=C(Nc1ccc(Cl)c(Cl)c1)c1cccnc1	2	-7.3	?	-9.7	-1	4	.
Cc1[nH]nc2c1C(c1cnn(C)c1)C(C#N)=C(N)O2 (stereo not given)	-2	0.5	3.0	1.8	18	15	3%
O=[N+]([O-])c1ccc(CS(=O)(=O)c2ncn[nH]2)cc1	-5	-2.2	0.3	-0.8	.	-7	12%
CCCSc1ncnc2c1oc1ccccc12	0	5.0	0.7	0.4	14	5	4%
CCn1c(COc2ccc(C)cc2)nnc1SCC(=O)NNC(=O)c1ccc(OC)cc1	-3	4.7	3.0	1.8	-7	-22	.
COc1ccc(NC(=O)NCc2ccccc2F)cc1OC	2	2.1	1.9	2.3	.	3	-1%
CCOC(=O)C(O)(NC(=O)c1cccnc1)C(F)(F)F (stereo not given)	-2	-2.2	.	-1.8	-5	1	1%
O=C(Nc1ccc(Cl)cc1)N[C@@H]1c2c(ccc3ccccc23)OC[C@@H]1CO	18	1.9	2.3	-2.3	1	16	-4%
CC1(/[N+]([O-])=C\c2ccccc2F)CCCCC1=O (stereo not given)	0	6.0	-1.7	-1.9	.	1	.
O=c1nc(SCc2c(F)cccc2Cl)nc(-c2ccc(Cl)cc2)[nH]1	7	-0.9	?	-1.7	11	-6	16%
COC(=O)c1ccc2c(c1)nc(C)n2CCO	7	0.8	4.6	5.1	-30	5	8%
Cc1onc(-c2ccccc2)c1C(=O)Nc1nc(-c2cc(F)ccc2F)cs1	-3	0.9	-1.7	0.5	6	4	-53%
COc1ccc([N+](=O)[O-])cc1NC(=O)Cc1noc2ccccc12	-4	0.3	-2.8	3.9	-2	5	-10%
Cc1ccc(SCCOCCN2CC(C)OC(C)C2)cc1 (stereo not given)	-1	0.8	-3.2	-3.6	3	1	20%
O=C(NCc1ccccn1)C1CC(c2ccccc2O)=NO1 (stereo not given)	-12	-2.5	-1.5	-5.6	5	-24	13%
